Screens as filed in PubChem.
VCAM-1 up imaging: boosters of cytokine-driven VCAM-1 levels – imaging, high-content imaging, pooled HUVEC, TNFa stimulus (AID 457) | 10,000 compounds, 0.2% hits | calls only | Pooled HUVEC, TNFa-induced VCAM-1 immunofluorescence imaging; hits of this screen are not shown here;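 active = a top-ranked rise in VCAM-1 staining upheld on image or statistical review; inactive = the rest, including candidates rejected on review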;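 also: compounds tested at 5 µM in the well; cells exposed to compound for 24 hours before fixing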
VCAM-1 down imaging: inhibitors of TNFa-induced VCAM-1 surface display, imaging, high-content imaging, pooled HUVEC, TNFa stimulus (AID 456) | HUVEC TNFa-induced VCAM-1 surface expression, immunofluorescence imaging; numbers were filed only for top-ranked candidate wells | one-dose inhibition, % at 5 µM; IC50 in µM for titrated hits | 10,000 compounds, 0.2% hits;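 active = top tenth filtered wells with inhibition above zero that passed visual or statistical confirmation; inactive = the rest, including hits rejected on review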;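 also: 0% = stimulated vehicle wells and 100% = unstimulated cells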
FPRL1 ligand: human FPRL1 ligand, with FPR counter-screen. inhibition, %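 (tested at 6.7 µM)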. 24,000 compounds, 0.3% hits. P25090. FPRL1-expressing cells, fluorescent ligand binding inhibition, flow cytometry;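 also: 0% = buffer alone and 100% = receptor blocker peptide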
Target sequence (P25090 whole entry, looked up): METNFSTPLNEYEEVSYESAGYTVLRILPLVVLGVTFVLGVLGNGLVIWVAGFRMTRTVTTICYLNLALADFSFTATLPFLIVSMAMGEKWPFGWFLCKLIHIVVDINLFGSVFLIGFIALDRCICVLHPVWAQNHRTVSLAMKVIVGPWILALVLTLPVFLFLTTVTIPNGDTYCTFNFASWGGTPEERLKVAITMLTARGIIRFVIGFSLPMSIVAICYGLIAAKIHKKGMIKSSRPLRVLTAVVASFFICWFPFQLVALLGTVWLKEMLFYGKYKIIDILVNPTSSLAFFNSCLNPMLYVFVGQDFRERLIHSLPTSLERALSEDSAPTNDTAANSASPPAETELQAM
FPR ligand: binds the human formylpeptide receptor FPR | P21462 | FPR-expressing cells, fluorescent ligand binding, flow cytometry | inhibition, %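 (tested at 6.7 µM)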 | 24,000 compounds, 0.74% hits | AID 440;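 also: 0% = buffer wells and 100% = receptor blocker peptide wells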
Target sequence (P21462 whole entry, looked up): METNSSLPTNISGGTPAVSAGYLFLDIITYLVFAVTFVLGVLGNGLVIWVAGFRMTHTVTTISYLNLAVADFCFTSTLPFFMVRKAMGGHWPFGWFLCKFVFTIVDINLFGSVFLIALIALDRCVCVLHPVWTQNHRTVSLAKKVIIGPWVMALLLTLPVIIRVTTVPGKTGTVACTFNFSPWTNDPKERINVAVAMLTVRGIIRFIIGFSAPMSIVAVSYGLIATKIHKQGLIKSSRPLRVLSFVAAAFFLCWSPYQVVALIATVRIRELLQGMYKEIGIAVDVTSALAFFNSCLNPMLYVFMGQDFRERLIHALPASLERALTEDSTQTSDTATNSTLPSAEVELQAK
VCAM-1 down: suppression of endothelial VCAM-1 upregulation – cell-based, plate reader, pooled HUVEC, TNFa stimulus (AID 454) | HUVEC TNFa-induced VCAM-1 surface immunofluorescence, plate reader; numbers were filed only for top-ranked candidate wells | inhibition, % at 5 µM | 10,000 compounds, 0.2% hits;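 active = compound among top-ranked inhibitors of TNF-induced VCAM-1 adhesion protein staining, with the hit upheld by image or statistical review; inactive = the rest, including hits rejected on review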;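 also: 0% = TNFa with vehicle and 100% = cells without TNFa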
Numbers without * were called inactive; i = inactive; . = no result given.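 The calls were made as follows, unless noted: active = mean above 30%; inconclusive = self-fluorescent; inactive = the rest.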

Molecule	VCAM-1 down	VCAM-1 up imaging	VCAM-1 down imaging	FPR ligand	FPRL1 ligand
Cc1nn(C(C)C(=O)NCC2CCCO2)c(=O)c2cc3occc3n12 (stereo unspecified)	.	.	.	4	6
COc1ccc(N2CCN(C(=O)c3c(-c4ccccc4)noc3C)CC2)cc1	i	i	i	-3	5
CCc1ccc(CCC(=O)Nc2ccc(C)c(C)c2)o1	i	i	i	-7	-2
Cn1c(=O)oc2cc(S(=O)(=O)NCCC(=O)NCCc3ccccc3)ccc21	.	.	.	-11	-6
COC(=O)CC1SC(=O)NC1=Nc1ccc(C)cc1 (stereo unspecified)	.	.	.	-3	13
O=C(O)CSCCC(=O)Nc1ccc(F)cc1	.	.	.	-6	-12
CCCCn1c(CNC(=O)CCC)nc2ccccc21	i	i	i	-5	-3
CCCn1c(NCc2ccc(N(C)C)cc2)nc2ccccc21	.	.	.	-19	-19

Remaining list, next part.
Molecule	VCAM-1 down	VCAM-1 up imaging	VCAM-1 down imaging	FPR ligand	FPRL1 ligand
CC[C@H](C)C(=O)O[C@H]1C[C@@H](C)C=C2C=C[C@H](C)[C@H](CC[C@@H]3C[C@@H](O)CC(=O)O3)[C@H]21	i	i	i	-3	-1
Cc1cc(C)c(OCC(=O)Nc2cccc(O)c2)cc1C	i	i	i	3	-3
OCCNC1=NCCN1	i	i	i	-5	-4
CCCCCn1c(=O)[nH]c2cc(C(=O)NCCN3CCOCC3)ccc2c1=O	i	i	i	-2	-1
COc1cccc(NC(=O)N2CCC(C(N)=O)(N3CCCCC3)CC2)c1	.	.	.	-1	10
CC(=O)c1ccc(N2CCN(C(=O)c3ccc(NC(=O)C4CCCO4)cc3)CC2)cc1 (stereo unspecified)	.	.	.	-6	3
Cc1cc(NC(=O)c2noc3c2CCCC3)no1	.	.	.	4	3
COC(=O)c1cn(CCOc2ccccc2)c2ccccc12	.	.	.	8	2

More entries follow:
Molecule	VCAM-1 down	VCAM-1 up imaging	VCAM-1 down imaging	FPR ligand	FPRL1 ligand
COc1ccc(CNC(=O)CS(=O)Cc2nc(-c3ccccc3C)oc2C)cc1 (stereo unspecified)	.	.	.	6	1
CN(C)c1ccc(NC(=O)CSc2nc3c(c(=O)[nH]2)CCCC3)cc1	.	.	.	-1	0
CCN(CC)CCCNS(=O)(=O)c1ccc(OC)cc1	i	i	i	-2	1
N#CC1=C(N)Oc2n[nH]c(-c3ccncc3)c2C1c1ccsc1 (stereo unspecified)	i	i	i	1	4
O=C(CCS(=O)(=O)c1ccc(Br)cc1)N1CCN(c2ccccc2)CC1	.	.	.	5	2
COc1cc(-c2noc(-c3cccc(Cl)c3)n2)cc(OC)c1OC	i	i	i	10	-1
COc1ccc(N(CC(=O)N2c3ccccc3CC2C)S(=O)(=O)c2c(C)noc2C)cc1 (stereo unspecified)	i	i	i	3	-1
CCC(C)C(NC(=O)OC(C)(C)C)C(=O)NC(CC(C)C)C(N)=O (stereo unspecified)	i	i	i	-2	0

New compounds follow.
Molecule	VCAM-1 down	VCAM-1 up imaging	VCAM-1 down imaging	FPR ligand	FPRL1 ligand
CC1CCC(NC(=O)Cn2cc3c(n2)CCCC3)CC1 (stereo unspecified)	.	.	.	-10	1
COC(=O)C1C2C=CC3(CN(c4cccc(Cl)c4)C(=O)C13)O2 (stereo unspecified)	.	.	.	4	0
Cc1cccc(N2CCN(c3nc4ccc(Cl)cc4n4cnnc34)CC2)c1C	.	.	.	-1	-13
Nc1nnc(-c2cccc(Cl)c2Cl)c(N)n1	i	i	i	-3	3
O=C1CCCN1CN1CCCCC1	.	.	.	-6	0
Cn1c(NCCO)nc2c(c1=O)C1(CCCCC1)Cc1ccccc1-2	.	.	.	3	0
CCOC(=O)NC(=O)CSc1nnnn1-c1ccc(Cl)cc1	i	i	i	8	10
O=C(O)c1cc(/C=N\O)ccc1OCc1ccccc1	i	i	i	1	0

(further entries)
Molecule	VCAM-1 down	VCAM-1 up imaging	VCAM-1 down imaging	FPR ligand	FPRL1 ligand
c1ccc2nc(-c3nc4ccccc4[nH]3)ccc2c1	i	i	i	1	-2
C=C(C)c1cccc(C(C)(C)NC(=O)Nc2ncccn2)c1	i	i	i	-3	0
COc1ccc(C2C(C(=O)Nc3ccccc3OC)=C(C)Nc3nnnn32)c(OC)c1 (stereo unspecified)	.	.	.	4	-1
CCN(CC)S(=O)(=O)c1ccc(NC2c3ncccc3C(=O)N2Cc2ccccc2)cc1 (stereo unspecified)	.	.	.	10	0
c1cc2c(cc1Nc1nc(-c3ccc4c(c3)OCO4)cs1)OCCO2	i	i	i	-2	0
O=C(Nc1ccc(N2CCCC2)cc1)c1ccc(Br)o1	i	i	i	-2	-5
COc1ccc(NC(=O)CN2CCN(CC(=O)Nc3ccc4c(c3)OCO4)CC2)cc1	.	.	.	-4	-13
CCOc1cccc(C(=O)N(Cc2ccc(F)cc2)C2CCS(=O)(=O)C2)c1 (stereo unspecified)	i	i	i	3	0

(list continues)
Molecule	VCAM-1 down	VCAM-1 up imaging	VCAM-1 down imaging	FPR ligand	FPRL1 ligand
COc1ccc(/C(O)=C2/C(=O)C(=O)N(CCCN(C)C)C2c2ccccc2)cc1Cl (stereo unspecified)	.	.	.	-8	-9
CCC(C)NC(=O)C(NS(=O)(=O)c1cccc2nsnc12)c1ccccc1 (stereo unspecified)	.	.	.	15	18
CCOc1ccc(NC(=O)CCS(=O)(=O)c2ccc3c(c2)CCCN3C(C)=O)cc1	.	.	.	-7	1
COc1ccc(CNC(=O)C2COc3ccccc3O2)c(OC)c1 (stereo unspecified)	.	.	.	2	1
Cn1nnnc1SCc1cn2cccnc2n1	i	i	i	-3	-6
CC1CCCN(C(=O)CSCC(=O)N=c2sc3ccccc3n2C)C1 (stereo unspecified)	.	.	.	3	0
Cc1cccc(-c2nc(CSCC(=O)N3CCN(c4ccccn4)CC3)c(C)o2)c1	.	.	.	-2	0
CCCCN(CC)C(=O)Cc1c(C(=O)O)[nH]c2ccc(Cl)cc12	.	.	.	3	-3

Continuation:
Molecule	VCAM-1 down	VCAM-1 up imaging	VCAM-1 down imaging	FPR ligand	FPRL1 ligand
NC(=O)c1cc(Cl)cn(-c2ccccc2)c1=O	.	.	.	-8	2
NC(=O)C1(N2CCCCC2)CCN(CC(=O)Nc2cc(Cl)ccc2Cl)CC1	i	i	i	-2	2
COc1ccccc1N1CCN(C(=O)CSc2nc(-c3ccccc3)cc(=O)[nH]2)CC1	i	i	i	-2	-2
COc1cccc(Cn2nnc(C(=O)Nc3cc(C)ccc3OC)c2N)c1	.	.	.	1	6
Cc1nonc1NC(=O)Nc1cccnc1	.	.	.	-1	-1
Cc1ccc(C(c2sc3ncnn3c2O)N2CC(C)CC(C)C2)cc1 (stereo unspecified)	i	i	i	-3	-4
CC(C)(C)NC(=O)Cn1nnc(-c2ccccc2Cl)n1	.	.	.	3	4
N#Cc1ccccc1-n1c(N)c(C(=O)N2CCCC2)sc1=S	.	.	.	-2	0

Four compounds out of the list, sorted by formula weight, rising:
Molecule	VCAM-1 down	VCAM-1 up imaging	VCAM-1 down imaging	FPR ligand	FPRL1 ligand
CC1CCC(NC(=O)Cn2cc3c(n2)CCCC3)CC1 (stereo unspecified)	.	.	.	-10	1
C=C(C)c1cccc(C(C)(C)NC(=O)Nc2ncccn2)c1	i	i	i	-3	0
CCCn1c(NCc2ccc(N(C)C)cc2)nc2ccccc21	.	.	.	-19	-19
COc1ccc(NC(=O)CN2CCN(CC(=O)Nc3ccc4c(c3)OCO4)CC2)cc1	.	.	.	-4	-13

(continued)
Molecule	VCAM-1 down	VCAM-1 up imaging	VCAM-1 down imaging	FPR ligand	FPRL1 ligand
Cc1cccc(C)c1NC(=O)C(c1ccccc1)N1CCC2(CC1)OCCO2 (stereo unspecified)	.	.	.	2	-7
O=C1C2CC=C(Cl)CC2C(=O)N1c1ncn[nH]1 (stereo unspecified)	i	i	i	1	0
CN1CCN(C(=O)C2CCCCC2C(=O)O)CC1 (stereo unspecified)	.	.	.	15	18
O=C(CSCc1cnn(-c2ccccc2)c1-n1cccc1)NCc1ccc2c(c1)OCO2	.	.	.	7	15
Cc1oc(-c2ccccc2F)nc1CN1CCC(C(=O)NCCC2=CCCCC2)CC1	.	.	.	-4	0
CCOc1cccc2c1OC1(C)CC2NC(=O)N1c1ccc(OC)cc1 (stereo unspecified)	.	.	.	0	-15
CCOC(=O)c1ccc(N2C(=O)CC(NC3CCN(C(=O)c4ccc(F)cc4)CC3)C2=O)cc1 (stereo unspecified)	i	i	i	-3	0
CC(=O)c1sc(NC(=O)C2COc3ccccc3O2)nc1C (stereo unspecified)	i	i	i	-3	-5

(further entries)
Molecule	VCAM-1 down	VCAM-1 up imaging	VCAM-1 down imaging	FPR ligand	FPRL1 ligand
CC(C)CNC(=O)c1noc2c1CCCC2	.	.	.	1	-3
COc1ccc(C2=NOC(C(=O)NCc3ccco3)C2)cc1OC (stereo unspecified)	.	.	.	-1	-1
Cc1cc(C)cc(NC(=O)CCn2ccnc2C)c1	.	.	.	-4	-2
CC(=O)N1c2c(cc(Br)cc2S(=O)(=O)N2CCN(c3ccccn3)CC2)CC1C (stereo unspecified)	i	i	i	-2	-7
COc1cc(NC(=O)CN2CCN(c3ccccc3F)CC2)cc(OC)c1	.	.	.	1	-2
COCCCNC(=O)CCn1c(=O)c2ccccc2n(CC(=O)Nc2c(C)cccc2C)c1=O	.	.	.	7	4
CCN1CCCC1CNC(=O)C(NC(=O)C1CCC(C)CC1)C(C)C (stereo unspecified)	.	.	.	3	-2
CCN1C2=NCCCN2c2cc(C)c(C)cc21	.	.	.	0	-1

Remaining list, next part:
Molecule	VCAM-1 down	VCAM-1 up imaging	VCAM-1 down imaging	FPR ligand	FPRL1 ligand
CC1CCN(C(=O)CSc2nnc(CNC(=O)c3ccco3)o2)CC1	.	.	.	-13	-14
COCC(=O)N(C)c1nnc(-c2ccccn2)s1	i	i	i	0	1
COc1ccccc1-c1cc(C(=O)NCCN2CCOCC2)no1	.	.	.	-1	6
O=C(CCN1C(=O)COc2ccccc21)NCc1cccs1	.	.	.	0	-4
O=C(CSc1nnc(Cn2c(=O)sc3ccccc32)n1-c1ccccc1)NCC1CCCO1 (stereo unspecified)	i	i	i	-1	-2
CCOC(=O)c1sc(=S)n(-c2cccc(OC)c2)c1N	.	.	.	11	-2
CCOC(=O)/N=C(/NC(=O)Nc1ccc(C(=O)OCC)cc1)OC	i	i	i	-4	-1
CCCC(OC(=O)CN1C(=O)COc2ccccc21)C(=O)NC1CCCC1 (stereo unspecified)	i	i	i	23	1

(next part)
Molecule	VCAM-1 down	VCAM-1 up imaging	VCAM-1 down imaging	FPR ligand	FPRL1 ligand
COc1cc(S(=O)(=O)N(C)C)ccc1F	i	i	i	-3	-2
CC(C)(C)n1nc2c(c1NC(=O)c1cccs1)CS(=O)C2 (stereo unspecified)	.	.	.	-10	-5
Cc1noc(NS(=O)(=O)c2ccc(N/C=C/C(=O)c3ccc4c(c3)OCO4)cc2)c1C	.	.	.	10	-2
COc1ccccc1C1C(C#N)=C(N)Oc2cc(C)n(Cc3ccccn3)c(=O)c21 (stereo unspecified)	i	i	i	-2	3
CCCS(=O)(=O)N1CCC(C(=O)NC2CCC(C)CC2)CC1 (stereo unspecified)	.	.	.	-1	-4
Cc1ccc(CNC(=O)CSc2n[nH]c(N)n2)cc1	i	i	i	6	3
O=C(c1noc2c1CCCCC2)N1CCOCC1	.	.	.	-4	-2
COc1ccc(NC(=O)c2nc3nc(C)cc(C(F)F)n3n2)cc1OC	.	.	.	1	0

Later entries
Molecule	VCAM-1 down	VCAM-1 up imaging	VCAM-1 down imaging	FPR ligand	FPRL1 ligand
COC(=O)Cn1cnc2c(nnn2-c2ccc(C)cc2)c1=O	i	i	i	-2	5
O=C(CSc1nc2ccccc2c(=O)n1Cc1ccco1)NCc1ccccc1	i	i	i	1	-1
O=C(NCCC1=CCCCC1)C1CC(=O)N(C2CCCCCC2)C1 (stereo unspecified)	i	i	i	-1	0
Nc1nonc1NC(=O)CSc1nc2ccccc2s1	i	i	i	-5	4
O=C(NCc1ccccn1)/C(=N/O)c1ccccc1	.	.	.	0	5
CCN(CC)CCN1C(=O)C(=O)/C(=C(/O)c2c(C)[nH]c(C(=O)OC)c2C)C1c1ccccc1 (stereo unspecified)	.	.	.	30*	16
Cc1ccc(-n2ncc3c(=O)n(CC(=O)NC4CCCCC4)cnc32)cc1	.	.	.	-8	-2
COc1ccccc1-n1c(SCC(=O)NC(C)(C)C)nnc1-c1ccco1	i	i	i	-3	-2

These rows are one share of the data (hit frequency here may not be typical).
